Cruzain noTriton = inhibitors of Trypanosoma cruzi cruzain without detergent; Potency, µM, without a hit: max response, negative = inhibition, hits mostly inhibitors; AID 1476; purified cruzain, Z-FR-AMC fluorescence, no detergent; 2.3% of 200,000 active; P25779; active means well fitted curve in the direction sought with a large enough effect; inconclusive means small, poorly fitted or top-dose-only effect, or another doubt; inactive means no such curve, though single readings can be large; an effect the other way counts as inactive or inconclusive;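 further: plate controls were enzyme without inhibitor for no effect and buffer without enzyme for full effect; nearly all actives have a fitted effect of over 40% in size; top concentration of the series not given in the record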
Target sequence (P25779 123-467 limits assumed): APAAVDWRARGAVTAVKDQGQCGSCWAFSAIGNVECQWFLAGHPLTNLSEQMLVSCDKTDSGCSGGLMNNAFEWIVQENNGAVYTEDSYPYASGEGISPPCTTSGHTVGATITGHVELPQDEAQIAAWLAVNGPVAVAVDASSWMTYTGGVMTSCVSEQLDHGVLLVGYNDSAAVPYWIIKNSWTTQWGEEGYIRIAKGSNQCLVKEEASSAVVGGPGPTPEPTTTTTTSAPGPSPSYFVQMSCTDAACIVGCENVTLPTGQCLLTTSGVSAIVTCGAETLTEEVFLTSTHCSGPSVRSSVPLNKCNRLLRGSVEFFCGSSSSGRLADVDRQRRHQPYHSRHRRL
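Purified cruzain at 1.5 nM, pre-incubated 15 min with compound at room temperature in 100 mM sodium acetate pH 5.5, 5 mM DTT, 0.00005% Triton X-100. Reaction started with 2 uM Z-FR-AMC; AMC fluorescence increase over 60 s gives rate.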
MARV entry inh = Marburg virus entry inhibition. Marburg virus pseudotyped entry inhibition, cell reporter; control for the full effect not named in the record; about a third of the inactives were read at about 46 µM. Potency, µM (doses to about 37.8 µM), for the others: at the top dose activity change, negative = inhibition, hits mostly inhibitors. 1.8% of 300,000 active. AID 540276; active = well fitted inhibition curve with a large enough effect; inconclusive = small, poorly fitted or top-dose-only effect, or effect the other way; inactive = flat fitted curve, though single readings scatter; tested in HEK293 cells; about a fifth of its hits are not listed in these tables; further: on the % scale 0 is the no-effect control and ±100 the full control effect; luciferase read-out
NS1 inh = blocks influenza NS1 protein function | Potency, µM (series often up to 46.1 µM), inactives show at the top dose activity, positive = more growth | 0.4% of 270,000 active | S. cerevisiae slowed by influenza A NS1, growth recovery by OD600; further: actives are rising curves; nearly all actives have a fitted effect of over 50% in size
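A cell-based growth assay was used: compounds that relieve NS1-induced slow growth of budding yeast raise OD600. Assay medium was yeast nitrogen base with ammonium sulphate and -URA supplement, pH 6.0, with 2% galactose.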
Cruzain Triton = blocks cruzain activity in presence of Triton detergent; P25779; purified cruzain, Z-FR-AMC fluorescence, 0.01% Triton; Potency, µM, inactives show max response, negative = inhibition, most hits filed as inhibitors; 0.43% of 200,000 active; AID 1478; active means well fitted curve in the direction sought with a large enough effect; inconclusive means small, poorly fitted or top-dose-only effect, or another doubt; inactive means no such curve, though single readings can be large; an effect the other way counts as inactive or inconclusive;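 further: plate controls were neutral wells for no effect and buffer without enzyme for full effect; nearly all actives have a fitted effect of over 40% in size; top concentration of the series not given in the record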
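In this qHTS format, compounds are incubated with 1.5 nM cruzain for 15 min at room temperature before 2 uM Z-FR-AMC is added. Release of AMC is followed at 360/450 nm, and progress is taken as the 60 s fluorescence difference.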
RE007 growth inh = less growth of the S. pombe RE007 Vpr strain; S. pombe RE007 Vpr strain, BacTiter-Glo ATP luminescence, 24 h; control for the full effect not named in the record; Potency, µM (highest dose often 92.2 µM), inactives show top-dose activity change, negative = less growth; 0.21% of 360,000 active; AID 651644; active = well fitted falling curve with a large enough effect; inconclusive = small, poorly fitted or top-dose-only effect; inactive = no such curve, though single readings can be large or run the other way;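 further: on the % scale 0 is the no-effect control and ±100 the full control effect; nearly all actives have a fitted effect of over 50% in size; the assay follows cell death caused by Vpr and the record does not say whether a fall means rescue or toxicity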
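Fission yeast strain RE007, carrying one chromosomally integrated HIV-1 vpr copy, was seeded at OD 0.01 in PMG+AL medium with 23 nL pinned compound. After 24 h at 30 °C and 99% humidity, viability was read by BacTiter-Glo luminescence.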
SARS PLpro yeast = SARS-CoV PLP inhibition in yeast; 0.19% of 330,000 active; Potency, µM (titrated, usually from 32.9 µM), inactives show at the top dose activity, positive = growth rescue; AID 485353; S. cerevisiae expressing SARS-CoV PLpro, growth rescue; control for the full effect not named in the record; further: 0% is about no effect; nearly all actives have a fitted effect of over 55% in size; growth read by luminescence after 48 h
LASV entry inh = inhibitors of Lassa virus binding or cell entry | Lassa virus pseudotype entry inhibition, cell reporter; control for the full effect not named in the record | Potency, µM (doses to about 37.9 µM), inactives show at the top dose activity change, negative = inhibition, hits mostly inhibitors | 1.2% of 300,000 active; active means well fitted inhibition curve with a large enough effect; inconclusive means small, poorly fitted or top-dose-only effect, or effect the other way; inactive means flat fitted curve, though single readings scatter; tested in HEK293 cells; further: on the % scale 0 is the no-effect control and ±100 the full control effect; nearly all actives have a fitted effect of over 50% in size; luciferase read-out
StopGo reporter = FMDV 2A StopGo reporter, luciferase signal; Potency, µM (series often up to 57.9 µM), for the others: at the top dose signal change, negative = less light; AID 1159524; 1.2% of 410,000 active; human cells with a luciferase reporter of 2A StopGo recoding; control for the full effect not named in the record; active = well fitted falling curve with a large enough effect; inconclusive = small, poorly fitted or top-dose-only effect; inactive = no such curve, though single readings can be large or run the other way; tested in HEK293T cells; further: on the % scale 0 is the no-effect control and ±100 the full control effect; nearly all actives have a fitted effect of over 45% in size; luciferase light after 4 h
* hit, by the source's call; ? = inconclusive; / = not tested or not shown; & = joins results of further samples; [ ] = dose if it differs, or a comment. Unless noted, the call rests on the fitted dose curve; in most records, active means well fitted rising curve with a large enough effect; inconclusive means small, poorly fitted or top-dose-only effect; inactive means no such curve, though single readings can be large or run the other way. Potency means the concentration at half of the fitted maximal effect.

SMILES	Cruzain noTriton	MARV entry inh	NS1 inh	Cruzain Triton	RE007 growth inh	SARS PLpro yeast	LASV entry inh	StopGo reporter
CN1CCN(Cc2nc3ccccc3c(=O)n2Cc2nc(-c3cccc([N+](=O)[O-])c3)cs2)CC1	/	?	/	/	-11%	-7%	?	-1%
CCc1ccc(NC(=O)NC2CCCCCCC2)cc1	/	?	-5%	/	10%	1%	?	13%
CC(C)(CO)CNC(=O)c1ccc2nc(Cc3cccc(Cl)c3)oc2c1	/	7%	2%	/	13%	4%	-26%	5%
COc1ccc(OC)c(NC(=O)CSc2nc3ccccc3nc2N2CCCCC2)c1	-5%	?	/	-5.0%	/	/	?	-16%
CNS(=O)(=O)c1cnccc1N1CCN(c2cccc(C)c2)CC1	10%	12%	1%	-3.0%	-3%	2%	12%	-3%
Clc1ccc2c(NCCNC3CCCCC3)ccnc2c1	-11%	1.6µM*	13%	0.9%	7%	/	?	-20%
COc1cccc(C(=O)Nc2ccccc2-c2nc(-c3ccc(C)cc3)no2)c1	-1%	3%[46.1 µM]	/	-1.6%	/	/	9%[46.1 µM]	2%
COC(=O)c1ccc(CN2CCC(CO)(Cc3ccccc3Cl)CC2)cc1	/	?	1%	/	-17%	0%	3%	-14%
CCCn1c2ccccc2c2nnc(SC(CC)C(=O)Nc3sc4c(c3C#N)CCCC4)nc21 (stereo not given)	10µM*	?	5%	-0.4%	13%	-2%	0%	-10%
COc1ccc(C(=O)NC2CCN(CC(=O)Nc3cccc(OC)c3)CC2)cc1	/	/	20%	/	0%	8%	/	-11%
Cc1ccc(C)c(N(C)C(=O)CCNC(=O)Cn2cnc3ccccc3c2=O)c1	-5%	/	/	0.1%	/	/	2%[46.1 µM]	-14%
Cc1c(C(=O)/C=C/N(C)C)nnn1-c1ccc(Cl)cc1Cl	/	8%[46.1 µM]	-33%	/	72%	-1%	-1%[46.1 µM]	-6%
O=C1N=c2ccccc2=C1c1sc(=S)n(-c2ccc(O)cc2)c1O	/	1%[46.1 µM]	-4%	/	-13%	-2%	/	32%[activator]
COc1ccc(CCNC(=O)c2[nH]c(C)c(C(C)=O)c2C)cc1	1%	?	-3%	-3.5%	-4%	0%	-16%	?
CC(C)c1csc(CN2CCN(Cc3ccc(F)c(F)c3)C(CCO)C2)n1 (stereo not given)	/	?	2%	/	1%	-1%	-25%	?
Cc1ccc(CCN2CC(C(=O)NCCN3CCCCCC3)CC2=O)cc1 (stereo not given)	2%	5%	-1%	1.1%	-8%	3%	0%	-4%
COc1ccc(NS(=O)(=O)c2cc(NC(=O)C3CCCCC3)ccc2N2CCOCC2)cc1	/	?	/	/	9%	0%	?	100%[activator]
Cc1ccc(C(=O)COC(=O)CCCC(=O)Nc2cc(C(F)(F)F)ccc2Cl)cc1C	-6%&26%	-1%[46.1 µM]	0%	-8.5%&-5.3%	-16%	2%	21%[46.1 µM]	11%&-24%
COc1ccc(C(=O)OCC(=O)Nc2ccc(Cl)c(C(F)(F)F)c2)c(OC)c1OC	?	-16%	0%	-14%	-4%	12%	-17%	-26%
CC(=O)NNS(=O)(=O)c1ccccc1[N+](=O)[O-]	-13%	0%	-1%	0.6%	-4%	20%	2%	6%
COc1ccc(NC(=O)Cc2cccc(F)c2)cc1S(=O)(=O)Nc1ccccc1Cl	/	?	1%	/	3%	1%	?	32%[activator]
Cc1cc(C(=O)CSc2nnc(-c3ccccc3)o2)c(C)n1CC1COc2ccccc2O1 (stereo not given)	20µM*	-23%	3%	5.0%	2%	6%	1%	?
CCN1CCSc2ccc(C(=O)NCc3cccc(F)c3)cc21	7%	-8%&-8%[46.1 µM]	-7%	0.9%	6%	-2%	/	30%&-4%
O=S(=O)(Cc1ccccc1)N1CCCCCC1	1%	-13%	8%	-3.2%	-8%	-2%	0%	-10%
CCc1cccc(NC(=O)NC2CCCCC2)c1	-3%	?	-52%	-0.2%	3%	-1%	?	123%[activator]
O=C(NCCc1ccc(Cl)cc1)c1cc(=O)[nH]c2ccccc12	/	1%[46.1 µM]	-2%	/	8%	8%	3%	-4%
Cc1ccc(C(=O)C[n+]2ccccc2C)cc1[N+](=O)[O-]	/	11%[46.1 µM]	-3%	/	-25%	3%	1%[46.1 µM]	15%
COc1ccc(C2c3c(ncn(CCCN4CCOCC4)c3=N)Oc3ccc4ccccc4c32)cc1OC (stereo not given)	/	/	2%	/	-10%	1%	/	-16%
CC(=O)N1CCN(CCN=Cc2c(O)n(-c3ccc(F)cc3)c(=S)[nH]c2=O)CC1	/	3%	0%	/	-14%	1%	13%	-4%
Cc1ccc(Cl)cc1N1CCN(S(=O)(=O)c2ccc(-c3ccc(=O)[nH]n3)o2)CC1	/	-16%[46.1 µM]	3%	/	-4%	3%	-22%[46.1 µM]	-8%
COc1ccc(N(C)S(=O)(=O)c2cccc(C(=O)Nc3nnc(C4CC4)s3)c2)cc1	/	17%[46.1 µM]	4%	/	1%	-5%	?	?
O=C(COC(=O)C1=COCCO1)NCCCc1ccccc1	-3%	18%	-2%	1.9%	5%	6%	15%	23%
COc1cccc(CC(NC(C)=O)C(=O)NC2CCN(C(=O)NCc3ccccc3)CC2)c1 (stereo not given)	/	28%[46.1 µM]	6%	/	9%	10%	/	-3%
Cc1nc2ccccc2n1CC(=O)NCc1ccccc1	3%	?	-8%	-3.7%	7%	2%	-36%[14.3 µM]	?
Clc1ccc(-n2nnnc2CN2CCOCC2)cc1	-7%	17%	1%	5.3%	5%[3.69 µM]	-5%	3%	11%
COc1ccc(NC(=O)C(C)Sc2nnc(C3CC3)n2C2CC2)cc1 (stereo not given)	/	?	/	/	-13%	2%	20%	-10%
CCC(C)N1C(=O)S/C(=C/c2ccc(Sc3nc4ccccc4[nH]3)o2)C1=O (stereo not given)	?	?	1%	1.1%	10%	-7%	?	/
Cc1cccn2c(=O)nc(SCC(=O)c3ccccc3)nc12	/	-1%	/	/	15%	/	12%	8%
Cc1ccc(S(=O)(=O)c2cc3c(=O)n4ccccc4nc3n(CCc3ccccc3)c2=N)cc1	/	0%[46.1 µM]	13%	/	4%	1%	2%	13%
CC(C)(Oc1ccc(Cl)cc1)C(=O)NC1=NN(c2ccccc2)C(=O)C1	-1%	16%	?	-13%	-6%	-28%	?	-33%
CCc1ccc(-c2cc3c(=O)n(CC(=O)NCCCN4CCN(Cc5ccccc5)CC4)nc(C)n3n2)cc1	/	/	15%	/	-22%	3%	/	-7%
CC(/C=C1\SC(=O)N(CCCC(=O)O)C1=O)=C\c1ccccc1	5%	0.5µM*	-2%	-9.2%	-1%	-1%	0.79µM*	0.89µM*
O=C(Nc1cccc([N+](=O)[O-])c1)Nn1cnnc1	/	/	3%	/	-3%	2%	/	-21%
COc1ccc(N2CCN(C(CNC(=O)CC(C)C)c3ccc4c(c3)OCO4)CC2)cc1 (stereo not given)	-16%	/	/	-1.0%	/	/	2%[46.1 µM]	3%
CCn1c(SCC(=O)N2CC(C)OC(C)C2)nc2c([nH]c3ccccc32)c1=O (stereo not given)	/	-1%	12%	/	-7%	1%	-14%	-11%
O=C(CCC(=O)N1CCOc2ccccc21)NCc1ccccn1	/	/	-4%	/	-8%	1%	/	4%
COc1cc2c(cc1OC)C(C(=O)NCC1COc3ccccc3O1)C(c1cccnc1)N(C)C2=O (stereo not given)	-2%	-19%	-24%	5.4%	0%	2%	15%	-3%
CC1CN(C(=O)c2cccc(Oc3ccccc3)c2)CC(C)O1 (stereo not given)	/	-5%[46.1 µM]	-2%	/	14%	-3%	-3%[46.1 µM]	-13%
Cc1ccc2nc(-c3ccncc3)cc(-c3ccccc3)c2c1	2%	13µM*	-92%	-3.9%	?	-15%	-1%	0%
Cc1c(NS(=O)(=O)c2ccc(N3CCCCC3)c([N+](=O)[O-])c2)c(=O)n(-c2ccccc2)n1C	-5%	?	5%	-1.1%	4%	5%	4%	-18%

Single records (already shown).
Results for O=C(Nc1cccc([N+](=O)[O-])c1)Nn1cnnc1 = Cruzain noTriton = /; MARV entry inh = /; NS1 inh = 3%; Cruzain Triton = /; RE007 growth inh = -3%; SARS PLpro yeast = 2%; LASV entry inh = /; StopGo reporter = -21%
Results for CCC(C)N1C(=O)S/C(=C/c2ccc(Sc3nc4ccccc4[nH]3)o2)C1=O (stereo not given) = Cruzain noTriton = ?; MARV entry inh = ?; NS1 inh = 1%; Cruzain Triton = 1.1%; RE007 growth inh = 10%; SARS PLpro yeast = -7%; LASV entry inh = ?; StopGo reporter = /

The listing picks up; the two compounds before the break are reprinted first.
SMILES	Cruzain noTriton	MARV entry inh	NS1 inh	Cruzain Triton	RE007 growth inh	SARS PLpro yeast	LASV entry inh	StopGo reporter
Cc1ccc2nc(-c3ccncc3)cc(-c3ccccc3)c2c1	2%	13µM*	-92%	-3.9%	?	-15%	-1%	0%
Cc1c(NS(=O)(=O)c2ccc(N3CCCCC3)c([N+](=O)[O-])c2)c(=O)n(-c2ccccc2)n1C	-5%	?	5%	-1.1%	4%	5%	4%	-18%
O=c1[nH][nH]c(=S)n1C1CCCCC1	/	-1%[14.2 µM]	9%	/	-1%	1%	-12%	7%
CCc1cccc(C)c1NS(=O)(=O)c1cc(Br)cnc1N	/	?	-22%	/	4%	-2%	?	-12%
COc1ccccc1N1CCN(S(=O)(=O)/C=C/c2ccccc2)CC1	-11%	6%	4%	3.4%	25%	-5%	6%	-11%
CCOC(=O)/C=C1\SCC(=O)N1CC(=O)NC(C)c1ccc(F)cc1 (stereo not given)	2%	-5%	12%	-4.0%	2%	-6%	20%	-12%

High-throughput results (PubChem BioAssay)

Outcome played no part in choosing rows; overall some 4.7% were active at least once.
